From PubChem BioAssay
Measles inh: inhibitors of measles virus growth in infected cells; infected Vero cells, GFP fluorescence, 64 h; stronger effect = lower value; z-score (no concentration beside the values); 33,000 tested, 0.1% active; AID 745;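 active = z-score under -3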;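 also: score is relative to mean and SD of the compound wells of a plate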
Starred values were filed as active, the others as inactive. The list is partial; count on the stated rates, not on these rows.

Sample of the layout, 6 compounds:
Measles inh	Molecule
-1.7	O=C1CCCc2c1cc(C(=O)NC1CCSC1=O)c(=O)n2-c1ccc(Cl)cc1 (stereo unspecified)
1.5	Cc1ccc(S(=O)(=O)C2(C(=O)Nc3ccccc3F)CC2)cc1
0.05	O=C1CC(c2ccccc2[N+](=O)[O-])c2ccccc2N1 (stereo unspecified)
-1.1	COc1ccc(C2CC(=O)C3=C(C2)Nc2ccccc2NC3c2ccc(Br)s2)cc1 (stereo unspecified)
-0.81	COc1ccc(C(C[N+](=O)[O-])c2c(-c3ccccc3)n(C)c3ccccc23)cc1 (stereo unspecified)
-0.85	Cc1ccn2c(NC(=O)C(C)(C)Oc3ccc(Cl)cc3)c(-c3ccccc3)nc2c1

The whole of this part, from the first entry:
Measles inh	Molecule
-1.7	O=C1CCCc2c1cc(C(=O)NC1CCSC1=O)c(=O)n2-c1ccc(Cl)cc1 (stereo unspecified)
1.5	Cc1ccc(S(=O)(=O)C2(C(=O)Nc3ccccc3F)CC2)cc1
0.05	O=C1CC(c2ccccc2[N+](=O)[O-])c2ccccc2N1 (stereo unspecified)
-1.1	COc1ccc(C2CC(=O)C3=C(C2)Nc2ccccc2NC3c2ccc(Br)s2)cc1 (stereo unspecified)
-0.81	COc1ccc(C(C[N+](=O)[O-])c2c(-c3ccccc3)n(C)c3ccccc23)cc1 (stereo unspecified)
-0.85	Cc1ccn2c(NC(=O)C(C)(C)Oc3ccc(Cl)cc3)c(-c3ccccc3)nc2c1
-2	COC(=O)c1ccc(-n2c(C)ccc2-c2ccccc2)cc1
-1.2	CCc1ccc2[nH]c(C)c(CN3CCN(C)CC3)c(=O)c2c1
-0.9	O=C(Nc1ccc(Cl)cc1)c1ccc(N2CC3CC(C2)c2cccc(=O)n2C3)c(NC(=O)c2cc3ccccc3oc2=O)c1 (stereo unspecified)
-0.31	O=C(O)c1ccc2c(c1)C1C=CCC1C(c1ccncc1)N2 (stereo unspecified)
-1.4	Cc1cc(C(=O)O)c(NC(=O)c2ccccc2)s1
0.8	Cc1cc(=O)[nH]c(SCCOc2ccccc2)n1
-0.97	CCN(C(=O)c1ccc(F)cc1)c1ccc(C(O)(C(=O)OC)C(F)(F)F)cc1 (stereo unspecified)
-0.5	CCOc1ccccc1CNC(=O)C1CCCN(S(=O)(=O)c2ccc(C)cc2)C1 (stereo unspecified)
2.5	CC1=CC(C)(C)Nc2ccc(OC(=O)C(C)(C)C)cc21
-1.7	COc1ccc(N2CCN(c3cc(N4CCN(S(=O)(=O)c5ccccc5)CC4)ccc3[N+](=O)[O-])CC2)cc1
0	O=c1scc(-c2ccc(Cl)cc2)s1
-0.71	CS(=O)(=O)N1CCN(C(=O)COc2ccc(Cl)cc2)CC1
2.6	Cc1cc2c(=O)n(CC(=O)N3CCCCCC3)cnc2s1
-0.13	CCOc1ccc(CC(=O)Oc2c(S(=O)(=O)c3ccc(C)cc3)c(C)nn2-c2ccccc2)cc1
-1.3	CCOc1cc2c(cc1OCC)C(C(=O)O)C(c1cccc(OC)c1)N(C)C2=O (stereo unspecified)
0.57	CC1CCSC(C)(C)S1 (stereo unspecified)
1.3	CCCCNC(=O)Cn1nc(C(F)(F)F)c2c1CCC2
3	COc1ccc(NC(=O)CCCn2nc(C)c([N+](=O)[O-])c2C)c(OC)c1
-0.52	Cc1cc(S(=O)(=O)n2nnc3cc(Cl)ccc32)ccc1Cl
1.5	CCOC(=O)c1cnc2c(C)c(Cl)ccc2c1Nc1ccccc1OC
-1.6	Cc1ccc(CN2C(=O)CCC2C(=O)NCc2cccs2)cc1 (stereo unspecified)
0.81	CC(C)N1CCc2c(sc(NC(=O)c3ccc(S(=O)(=O)N(C)C4CCCCC4)cc3)c2C(N)=O)C1
0.25	CCOC(=O)c1cc2c(=O)n3ccccc3nc2n(CCOC)c1=NC(=O)c1ccccc1C(F)(F)F
1.4	O=C(CCS(=O)(=O)c1ccc(Br)cc1)Nc1ccccc1F

Two entries from above in another layout.
> O=c1scc(-c2ccc(Cl)cc2)s1
  Measles inh = 0

> CS(=O)(=O)N1CCN(C(=O)COc2ccc(Cl)cc2)CC1
  Measles inh = -0.71

Continuation:
Measles inh	Molecule
-0.51	COc1ccc(Cl)cc1NC(=O)C1c2ccccc2C(=O)N(C)C1c1ccc(OC)c(OC)c1 (stereo unspecified)
0.06	Cn1c(C=Cc2ccc([N+](=O)[O-])o2)nc2ccccc2c1=O
-0.27	Cc1csc(NC(=NS(=O)(=O)c2ccccc2)c2ccccc2)n1
-0.41	O=C(Nc1ccccc1C(F)(F)F)C1(S(=O)(=O)c2ccc(Cl)cc2)CC1
0.59	O=C(CSc1nc2cc(C(=O)N3CCOCC3)ccc2c(=O)n1C1CCCCC1)c1ccccc1
-0.68	CCCCNC(=O)NS(=O)(=O)c1ccc(N=Cc2cccs2)cc1
0.03	Cc1cccc(C(=O)Nc2ccc(-c3nc4ccccc4[nH]3)cc2)c1
0.96	COc1ccc(Br)cc1CNC(=O)C1CCCN(S(=O)(=O)N2CC(C)CC(C)C2)C1 (stereo unspecified)
2.6	CCOc1ccc2cc(C3=NN(C(=O)CCC(=O)O)C(c4ccc(Br)cc4)C3)c(Cl)nc2c1 (stereo unspecified)
-0.63	CCOc1ccc(C2Nc3ccc4ncccc4c3C3=C2C(=O)CC(C)(C)C3)cc1 (stereo unspecified)
-1	Cc1ccccc1CN1C(=O)c2ccccc2Sc2ccc(C(=O)N3CCCC3)cc21
1.5	CCOC(=O)C1=C(C)NC(=O)NC1c1ccc(-c2cccc(Cl)c2C)o1 (stereo unspecified)
-0.98	COc1ccc(-c2cc(C(=O)Nc3cc(C)n(Cc4ccc(Cl)cc4)n3)no2)cc1
-0.43	COc1ccc(-n2c(=O)c3ccccc3n(CC(=O)OCc3ccccc3)c2=O)cc1OC
-1.5	O=S(=O)(c1cnc[nH]1)N1CCN(c2cccc(Cl)c2)CC1
0.84	O=C(Nc1ccc(Cc2ccncc2)cc1)C(F)(F)F
-0.2	CCc1ccc(OCC2c3cc(OC)c(OC)cc3CCN2C(=O)c2ccccc2OC)cc1 (stereo unspecified)
-0.94	Cc1cc2cc(CCNC(=O)c3ccc(S(=O)(=O)N4CCCCC4)cc3)c(=O)[nH]c2cc1C
-1.3	Cc1ccc(S(=O)(=O)N(C(=O)NC(=O)Nc2cccc(C(F)(F)F)c2)c2ccccc2)cc1
-0.11	Cc1ncc(CO)c2cc(C(N)=O)c(=Nc3ccc(C(N)=O)cc3)oc12
0.14	Cc1cccc(C(C)C)c1NC(=O)C1c2ccccc2Oc2ccccc21
-1.1	CCC1(C)Cc2ccccc2-c2nc3n(c(=O)c21)CC(C(=O)O)S3 (stereo unspecified)
-0.03	Cc1oc(CSCc2cc(C(=O)O)c(C)o2)cc1C(=O)O
-4.4*	Cc1cccc(C(=O)Nc2sc3c(c2C(=O)Nc2ccccc2Cl)CCCC3)c1
-0.55	O=C1C2CCCCC2C(=O)N1c1ccc2[nH]c(=S)sc2c1 (stereo unspecified)
0.59	Cc1ccc(NC(=O)CSc2nnc(N3C(=O)c4ccccc4C3=O)s2)c(C)c1
0.3	Cc1nc2c(C#N)c(C)[nH]n2c(=O)c1Cc1ccccc1
3.7	Cc1cccc(NC(=O)c2cc(S(=O)(=O)N3CCc4ccccc4C3)ccc2F)c1C
0.82	CC1=C(C(=O)OC2CCCC(C)C2)C(c2ccc(O)c([N+](=O)[O-])c2)NC(=O)N1 (stereo unspecified)
-0.96	CCCS(=O)(=O)N1CCN(C(=O)c2cccc(OC)c2OC)CC1
-0.13	COc1ccc(NC(=O)CCCN2C(=O)C3C4C=CC(C4)C3C2=O)c(OC)c1 (stereo unspecified)
-0.81	COc1ccc2nc(N3CCCC(C(=O)NC(C)C)C3)sc2c1 (stereo unspecified)
-0.71	COc1ccc(CC(C)CC(=O)Nc2ccc(I)cc2)cc1 (stereo unspecified)
-1.4	O=C(Nc1ccc2oc(-c3cccc4c(Br)cccc34)nc2c1)c1ccc([N+](=O)[O-])o1
-0.1	C=CCOC(=O)C1=C(C)Nc2[nH]c(=O)[nH]c(=O)c2C1c1ccc(C(C)C)cc1 (stereo unspecified)
-0.76	Cc1cc(=O)oc2c1c(C)nn2C
-0.36	O=C(CSc1nnc2c(n1)[nH]c1ccccc12)Nc1ccccc1F
-0.53	COc1ccccc1C1CC(=O)C2=C(C1)NC(C)=C(C(=O)OC1CCCC1)C2c1ccc(OC(C)=O)cc1 (stereo unspecified)
1.3	CC(C)CCOC(=O)c1c2c(n3ccccc13)C(=O)c1ccccc1C2=O
1.5	O=C(CN1CCN(CC(=O)Nc2ccccc2F)CC1)Nc1ccc2c(c1)OCO2
-0.31	CCCSc1nc(N)cc(=O)[nH]1
-0.08	Nc1c(C(=O)NCc2cccs2)nnn1-c1ccccc1
-0.44	CCNc1nc(Oc2ccc(C(=O)OC)cc2)nc(SC)n1
0.63	COc1cc(COc2ccc3c(C)c(CC(=O)O)c(=O)oc3c2C)cc(OC)c1OC
-2	O=C1CN(C(=O)c2ccccc2Br)C(c2ccc(F)cc2)c2cc(Br)ccc2N1 (stereo unspecified)
-1.8	CCOC(=O)C1=C(C)NC(C)=C(C(=O)OCC)C1c1ccccc1
1.6	C=CCn1c(N)c(C(N)=O)sc1=S
-0.39	CCN1CCCC1CNC(=O)c1cn(C)c(=O)c2cc(OC)c(OC)cc12 (stereo unspecified)
-1.4	COc1ccc(C2/C(=C(\O)c3ccc(C)cc3)C(=O)C(=O)N2CCCn2ccnc2)cc1 (stereo unspecified)
-1.1	O=c1c2ccccc2nc(C=Cc2c[nH]c3ccccc23)n1-c1ccc([N+](=O)[O-])cc1
0.16	CCCCN(CCCC)Cc1nc2c(c(=O)[nH]1)C1(CCCC1)Cc1ccccc1-2
0.92	CCC1CCCCN1CCCNC(=O)c1cc2c(=O)[nH]c3ccccc3c2n1C (stereo unspecified)
-1.1	Cc1cccc(NC(=O)C(Cc2ccccc2)NS(=O)(=O)c2cccs2)n1 (stereo unspecified)
0.5	CCOc1ccccc1C(=O)N1CC(=O)Nc2ccc(C)cc2C1c1ccc(F)cc1 (stereo unspecified)
-0.11	COc1ccc(NC(=O)c2cc3c(CO)cnc(C)c3oc2=Nc2ccc(C(F)(F)F)cc2)c(OC)c1
1.5	O=C(C1CC(=O)N(C2CCCC2)C1)N1CCN(c2ccc(F)cc2)CC1 (stereo unspecified)
-0.27	O=C(Nc1ccccc1F)C(Cc1ccccc1)NS(=O)(=O)c1cccs1 (stereo unspecified)
1.4	O=c1c2ccccc2c(=O)c2c1c(NCc1ccccc1)cc1oc3ccccc3[nH]c12
-1.1	C1CNCCOCCOCCNCCN1
-0.04	NC(=O)c1cccc(NC(=O)c2ccccc2I)c1

The list continues.
Measles inh	Molecule
-1.2	O=C1c2ccccc2-c2onc3c(N4CCCC4)cc(Nc4ccc(Cl)cc4)c1c23
-0.36	COc1ccc(NC(=O)CSc2nc3ccc(OC)cc3[nH]2)c(OC)c1
-0.02	COc1ccc(C2(C(=O)NC3CCCCC3)CCCC2)cc1OC
-0.57	COc1cccc(-n2c(=O)c3c(C)c(C(=O)N(C)C)sc3n(CC(=O)Nc3ccccc3F)c2=O)c1
0.31	O=C(COc1ccccc1O)NCCN1CCOCC1
0.19	Cc1ccn2c(Nc3ccc4c(c3)OCO4)c(-c3ccc(C)o3)nc2c1
-1	CN1C(=O)CC(C(=O)NCCc2ccccc2)SC1=Nc1ccc(I)cc1 (stereo unspecified)
-0.53	O=C(CC(=O)c1ccccc1)Nc1cccnc1Cl
0.57	Cc1ccc2[nH]c(=O)c3cc(C(=O)N4CCC(Cc5ccccc5)CC4)sc3c2c1
0.89	CC(C)NC(=O)c1ccc(Cn2c(=S)[nH]c3ccc(Br)cc3c2=O)cc1
0.64	CC(=O)c1ccc(NC(=O)c2ccc(N)cc2)cc1
-1.2	Cc1ccccc1CSc1cn(CCNC(=O)c2ccccc2F)c2ccccc12
-1.2	O=C(CN1CCOCC1)N1c2ccccc2CCc2ccccc21
-0.15	O=C(Nc1ccc(-c2noc(-c3ccccc3)n2)cc1)c1ccco1
1.3	CC(=O)CCN1C(=O)C(=O)c2ccccc21
0.1	CCCOc1ccc(C2C(=O)N(C3CCCCC3)CC(=O)N2Cc2ccccc2OC)cc1OC (stereo unspecified)
0.36	CCCC(=O)N1c2ccccc2-c2nnc(SC)nc2OC1C (stereo unspecified)
0.59	COc1ccc(C2=NN3C(C(=O)c4ccc(Br)cc4)Oc4ccccc4C3C2)cc1 (stereo unspecified)
-0.2	Cc1nn(CCCC(=O)Nc2cc(Oc3ccccc3)cc([N+](=O)[O-])c2)c(C)c1[N+](=O)[O-]
-0.18	O=C(c1c[nH]c2ccc(S(=O)(=O)Nc3cccc(C(F)(F)F)c3)cc2c1=O)N1CCN(c2ccccc2F)CC1
-0.74	CCOc1ccc(N=c2scc(-c3ccc(Br)s3)n2C)cc1
0.22	O=C(CN1C(=O)COc2ccccc21)NCCCN1CCCC1=O
1.1	CC(NC(=O)CCNS(=O)(=O)c1ccc(Br)cc1)c1ccccc1 (stereo unspecified)
1.1	O=C(O)c1ccc2c(=O)n3c4ccc(Cl)cc4nc3c3ccc(C(=O)O)c1c23
1.1	CCc1ccccc1NC(=O)c1c(NC(=O)c2ccccc2Cl)sc2c1CCC2
1.2	O=C(CN1C(=O)C2CC=C(Cl)CC2C1=O)N1CCCC1 (stereo unspecified)
-0.35	COc1ccc(-c2nnc(SCC(=O)NCc3ccco3)n2-c2ccccc2)cc1
-1.2	COc1ccc(Cn2c(=O)[nH]c3cc(C(=O)N4CCN(C5CCCCC5)CC4)ccc3c2=O)cc1
-0.76	COc1cc(Br)cc(C=Nc2ccc(O)c(-c3nc4ccccc4s3)c2)c1O
-0.03	COC(=O)c1cn(C(=O)c2cccc(Br)c2)c2ccccc12

5 neighbouring entries out of the list so far:
Measles inh	Molecule
1.2	O=C(CN1C(=O)C2CC=C(Cl)CC2C1=O)N1CCCC1 (stereo unspecified)
-0.35	COc1ccc(-c2nnc(SCC(=O)NCc3ccco3)n2-c2ccccc2)cc1
-1.2	COc1ccc(Cn2c(=O)[nH]c3cc(C(=O)N4CCN(C5CCCCC5)CC4)ccc3c2=O)cc1
-0.76	COc1cc(Br)cc(C=Nc2ccc(O)c(-c3nc4ccccc4s3)c2)c1O
-0.03	COC(=O)c1cn(C(=O)c2cccc(Br)c2)c2ccccc12
